Ecoli rRNA inh: inhibitors of bacterial rRNA selective over humanized ribosomes; GFP signal change (wild-type ribosome), % (no concentration beside the values); 350,000 tested, 1.6% active; E. coli WT GFP vs humanized-ribosome RFP mutants, fluorescence, 24 h; stronger effect = lower value; DMSO median 0, no signal -100;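 active = significant combined selectivity score with lowered wild-type GFP, culture density cut under 30%, mutant RFP and density less affected; inactive = any of these conditions unmet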; note: one replicate is shown; some compounds called inactive have numbers as strong as hits
ALR H2O2 inh: blocks human ALR sulfhydryl oxidase activity | inhibition, % (concentration not given with the values) | P55789 | purified ALR, DTT oxidation, H2O2 HRP-luminol luminescence | AID 485317 | 290,000 tested, 3.8% active;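 active = mean and each replicate at 75% or more; inconclusive = only one of the two met; inactive = neither met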;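 note: stock transfer was 7.5 nL into about 7.5 µL; 0% = neutral wells and 100% = wells with inactivated enzyme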
UCH37 DUB inh: inhibitors of human deubiquitinating enzyme UCH37; AID 588478; 330,000 tested, 0.33% active; Q9Y5K5; purified proteasome/UCH37, Ub-AMC cleavage fluorescence; inhibition, % (test concentration not listed);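 active = mean of two replicates above 20%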;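 note: 0% = compound-free wells with enzyme and 100% = wells lacking proteasome; stock transfer was 100 nL into about 20 µL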
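Material: human UCH37 enzyme supplied as purified proteasome complex / Amount: 0.15 nM proteasome as dispensed / Buffer or medium: pH 7.4 Tris-HCl (50 mM) with ovalbumin, ATP-MgCl2, DTT / Times: preincubation 30 min, reaction 25 min, room temperature / Technique: AMC fluorescence from Ub-AMC cleavage, excitation 355 nm, emission 460 nm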
FGF22 binding: shifts melting point of recombinant human FGF22 | Q9HCT0 | recombinant FGF22 thermal shift, SYPRO orange fluorescence; percent of sucrose octasulfate shift, DMSO zero | calls only at 9.99 µM | 340,000 tested, 1.5% active | AID 651658;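 active = melting point raised past a set limit in the mean and every replicate; inconclusive = no clear call; three in four hits are not shown here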
Target sequence (Q9HCT0 whole entry, looked up): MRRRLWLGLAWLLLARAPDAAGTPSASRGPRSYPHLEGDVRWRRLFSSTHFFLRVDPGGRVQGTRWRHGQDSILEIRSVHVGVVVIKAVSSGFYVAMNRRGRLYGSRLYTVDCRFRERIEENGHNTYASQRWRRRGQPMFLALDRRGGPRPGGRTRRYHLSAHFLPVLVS
E coli growth: blocks Escherichia coli growth; OD600, 23 h; stronger effect = lower value; OD600 absorbance (no concentration beside the values); 330,000 tested, 0.21% active; AID 1053175;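 active = OD600 absorbance below the run mean of sample wells minus 3.6 SD, in any replicate, cut at about 0.56 in these data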;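 note: stock transfer was 300 nL into about 60 µL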
HNF4A DNA FP: change in binding of human HNF4 alpha to DNA; AID 1224865; P41235; activity change, % at 10 µM; HNF4a-FITC DNA binding, fluorescence polarization, 1 h; 360,000 tested, 0.3% active; in the data active = activity change above about 30%, passing the limit was not always enough;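 note: controls were the assay level and a saturating level of protein; the project sought stronger binding though the title names inhibitors; some compounds called inactive have numbers as strong as hits; positive values seem to mean higher polarization but the record does not say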
Target sequence (P41235 whole entry, looked up): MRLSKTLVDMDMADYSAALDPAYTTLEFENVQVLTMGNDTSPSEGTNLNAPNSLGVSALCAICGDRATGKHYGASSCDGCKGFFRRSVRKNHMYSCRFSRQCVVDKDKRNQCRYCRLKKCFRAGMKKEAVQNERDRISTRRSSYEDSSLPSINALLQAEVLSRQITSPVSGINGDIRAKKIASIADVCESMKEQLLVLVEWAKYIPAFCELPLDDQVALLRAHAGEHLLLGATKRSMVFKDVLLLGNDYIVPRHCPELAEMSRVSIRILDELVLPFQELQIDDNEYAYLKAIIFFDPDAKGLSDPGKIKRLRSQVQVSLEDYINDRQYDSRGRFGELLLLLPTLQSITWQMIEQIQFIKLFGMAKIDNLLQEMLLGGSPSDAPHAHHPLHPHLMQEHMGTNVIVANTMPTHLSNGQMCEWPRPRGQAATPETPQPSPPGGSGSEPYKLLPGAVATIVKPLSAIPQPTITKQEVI
Beta2AR agonist: human beta-2 adrenergic receptor agonism by FAP | P07550 | Am2.2-beta2AR cells, FAP receptor internalization, flow cytometry; reference of the scale not given here | response, % (concentration not given with the values) | 340,000 tested, 0.43% active;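 active = response above a set limit, near 3 SD of response in nonfluorescent compounds, cut at about 42% in these data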;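 note: stock transfer was 100 nL into about 11 µL; a reference agonist was the positive control; negative values mostly stem from fluorescent compounds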
Target sequence (P07550 whole entry, looked up): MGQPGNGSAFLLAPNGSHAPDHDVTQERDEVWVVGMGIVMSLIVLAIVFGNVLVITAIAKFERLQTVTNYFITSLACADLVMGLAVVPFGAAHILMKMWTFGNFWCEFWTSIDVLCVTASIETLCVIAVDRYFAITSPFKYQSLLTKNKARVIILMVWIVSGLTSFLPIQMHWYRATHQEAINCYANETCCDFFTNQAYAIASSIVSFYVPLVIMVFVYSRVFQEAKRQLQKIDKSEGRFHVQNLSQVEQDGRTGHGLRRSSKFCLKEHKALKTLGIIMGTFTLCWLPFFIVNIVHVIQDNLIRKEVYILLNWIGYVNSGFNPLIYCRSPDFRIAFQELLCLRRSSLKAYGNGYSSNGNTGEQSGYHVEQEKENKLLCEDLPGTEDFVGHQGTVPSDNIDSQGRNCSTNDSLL
Ecoli rRNA inh OD600: second read-out of Ecoli rRNA inh, no call of its own (marks repeat the call); OD600 change, %; measured here: OD600 growth;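 optical density of the mix in the first replicate; 0 = DMSO median and -100 = no signal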
Ecoli rRNA inh RFP: also measured in Ecoli rRNA inh; calls as there; RFP signal change, %; measured here: RFP humanized mutant strains;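 first replicate; 0 = DMSO median and -100 = no signal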
* hit, by the source's call; i = inactive; ? = inconclusive; nt = not tested or not shown. This is a subset; count on the stated rates, not on these rows.

SMILES	Ecoli rRNA inh	Ecoli rRNA inh OD600	Ecoli rRNA inh RFP	ALR H2O2 inh	UCH37 DUB inh	FGF22 binding	E coli growth	HNF4A DNA FP	Beta2AR agonist
CC(CN1CCCCC1)OC(=O)CCc1ccccc1 (stereo unspecified)	7	10	-1.0	-3	3.2	nt	0.7	-1.7	-2
COc1ccc(/C=C2/SC(=O)N(CC(=O)Nc3cc(C)on3)C2=O)cc1OC	8	6	5.2	-7	nt	i	nt	2.1	7
O=C(c1ccc2c(c1)OCCO2)N1CCN(Cc2c(F)cccc2Cl)CC1	-6	-14	-3.4	-24	0.9	i	0.71	-1.9	1
Cc1cc(=O)oc(C)c1C(=O)Nc1cccnc1Cl	15	-1	3.4	-8	-0.1	i	0.64	-1.0	8
Cc1c(C(=O)NCc2cccnc2)oc2ccc(S(=O)(=O)N3CCCC(C)C3)cc12 (stereo unspecified)	nt	nt	nt	-7	0.4	nt	0.71	0.3	4
COc1ccc(-c2oc3c4c(cc(OC)c3c(=O)c2CC=C(C)C)OC(C)(C)C=C4)c(OC)c1	nt	nt	nt	-5	-7.4	nt	0.81	nt	nt
COc1ccc(CCNC(=O)c2ccc(NC(=O)CC3SC(N4CCCCC4)=NC3=O)cc2)cc1 (stereo unspecified)	-3	1	-1.5	nt	1.7	i	0.67	2.0	5
COc1ccc(CCN=C(N)NS(=O)(=O)c2ccc(C)cc2)cc1	nt	nt	nt	-15	2.4	nt	0.68	-0.7	-3
Cc1sc(NC(=O)CN2CCN(c3ccccn3)CC2)c(C#N)c1C	nt	nt	nt	3	0.0	nt	0.68	2.2	-2
COc1cc(C(=O)N2C[C@H]3CC[C@H]2C3)ccc1OC1CCN(C(C)=O)CC1	14	15	3.2	-24	2.0	i	0.72	-2.8	2
COc1cc(NS(=O)(=O)c2cn(C)cn2)cc(OC)c1	0	-3	-1.3	-4	0.0	i	0.71	1.0	0
CC1(C2CCCC2)NC(=O)NC1=O (stereo unspecified)	3	8	-1.6	nt	1.5	i	0.68	-0.9	1
COc1ccc(OCC(=O)N2CCc3c([nH]c4ccccc34)C2c2ccccn2)cc1 (stereo unspecified)	-11	-16	-1.8	-5	1.9	nt	0.68	-4.8	14
CC(C)[C@H](NC(=O)c1ccccc1F)C(=O)Nc1ccc2c(c1)OCO2	8	2	1.0	nt	-1.8	i	0.65	-0.1	2
COCCOc1ccc(C(F)(F)F)cc1NC(=O)COC(=O)c1ccc(N2CCCC2=O)cc1	-1	8	2.0	-5	-3.7	i	0.69	-4.5	-16
O=C(Nc1c(-c2ccc(F)cc2)nc2ccccn12)c1ccc(F)cc1	-7	-5	-6.6	12	4.9	i	0.71	10	3
Cc1ccccc1NC(=O)Cc1nc(COC(=O)c2ccc(Cl)c(S(N)(=O)=O)c2)cs1	3	2	-1.1	-8	-0.7	i	0.64	-0.5	6
COC(=O)COc1cccc(NC(=O)c2ccc(C)cc2)c1	nt	nt	nt	3	3.2	nt	0.71	2.2	-1
O=C1CNc2ccc(C(=O)N3CCN(c4ccccn4)CC3)cc2N1	17	14	0.9	nt	1.1	i	0.7	6.6	7
Cc1ccccc1C(=O)N(C)[C@H]1C[C@H]2c3[nH]c4ccccc4c3CCN2C[C@H]1[C@H](C)O	0	10	-1.4	nt	nt	i	nt	-0.7	nt
O=C1CN(C(=O)N[C@@H](Cc2ccccc2)C(=O)N[C@H](Cc2ccccc2)C(=O)O)c2ccccc2N1	18	13	-1.3	-2	0.2	i	0.74	1.3	-3
CC(=O)c1cccc(NC(=S)NCCc2ccc(Cl)cc2)c1	-35	-52	-3.9	2	1.4	i	0.63	-6.7	4
O=C(O)c1ccc(-c2nc(-c3ccccc3)c(-c3cccs3)[nH]2)cc1	5	-1	-4.4	0	i	i	0.68	-3.2	-4
CCOC(=O)NCc1ccccc1	nt	nt	nt	-7	0.6	nt	nt	-0.9	-2
COC(=O)C1CCCCN1C(=O)c1cc(COc2cccc3cnccc23)on1 (stereo unspecified)	-31*	-21*	-5.5*	-23	nt	i	nt	3.1	8
CN1CCN(C(=O)CN(c2cc(C(F)(F)F)ccc2Cl)S(C)(=O)=O)CC1	21	14	2.2	nt	0.5	nt	0.7	-3.7	-5
CCC/C(O)=C1\C(=O)CCCC1=NCCc1c(C)[nH]c2ccccc12	-7	-7	-0.1	46	1.1	i	0.66	1.2	-6
CC(C)(C)OC(=O)NCc1ccc(CNC(=O)c2nc[nH]c2C(=O)N2CCN(C(=O)OC(C)(C)C)CC2)cc1	1	3	-6.8	4	11	i	0.66	-1.9	15
CN(Cc1ccc(Cl)c(Cl)c1)C(C(=O)NCc1ccccc1)c1ccc(C(F)(F)F)cc1 (stereo unspecified)	18	3	4.0	nt	nt	i	nt	-0.7	nt
C=CCN=C(NC#N)SCCc1ccccc1	nt	nt	nt	-5	4.1	nt	0.72	-6.3	1
CC(CSc1nnnn1-c1ccccc1)Cn1c(N2CCN(C)CC2)nc2c1c(=O)[nH]c(=O)n2C (stereo unspecified)	-5	5	1.0	nt	1.0	i	0.72	2.6	-6
CC(=O)Oc1ccc(Cn2c(C)c(C(=O)NC3CC3)sc2=O)cc1	15	6	-2.7	nt	nt	i	nt	1.9	nt
O=C(O)c1ccc2noc(-c3ccccc3)c2c1	nt	nt	nt	23	7.1	nt	0.72	0.9	-2
COCCN(C(=O)CNC(=O)c1ccco1)C(C(=O)NC1CCCC1)c1ccc(OC)cc1 (stereo unspecified)	3	8	-2.7	0	6.7	i	0.69	1.7	1
C/C(=N\NC(=O)CNc1cccc(Cl)c1C)c1cccs1	16	12	-0.1	14	nt	i	nt	2.6	-6
Cc1cccc(NS(=O)(=O)c2ccc(C(=O)NCC3CCCO3)cc2)c1C (stereo unspecified)	13	0	1.5	9	0.4	i	0.71	1.3	7
CC(=O)Nc1ccc(S(=O)(=O)N2CCCC2C(=O)Nc2ccc(F)cc2)cc1 (stereo unspecified)	0	-5	-0.9	-20	0.0	i	0.66	-2.7	-6
COc1cc(C(C)=O)ccc1OCC(=O)OCC(=O)c1cc(C)n(CC2CCCO2)c1C (stereo unspecified)	4	-16	42	0	4.3	i	0.67	1.8	1
O=C(CSc1nc(-c2ccccc2)c(-c2ccccc2)o1)NCCCO	-5	-27	-3.2	9	-5.9	i	0.64	0.9	1
CC(C)(C)c1ccc(C(=O)Nc2ccc(S(=O)(=O)Nc3cnc4ccccc4n3)cc2)cc1	2	8	-1.9	22	2.8	i	0.72	-2.6	10
CCN(CC)c1ccc(NC(=O)CCCCC(=O)Nc2ccc(N(CC)CC)cc2)cc1	3	6	0.6	?	5.0	i	0.68	-0.2	3
CCOC(=O)C1C(C(=O)OCC)C1(c1ccccc1)c1ccccc1 (stereo unspecified)	-18	-4	-3.4	nt	2.8	i	0.7	-0.3	0
Cc1cc(C(=O)CSc2nnc(Nc3ccccc3)s2)c(C)n1CC1CCCO1 (stereo unspecified)	nt	nt	nt	0	2.2	nt	0.69	5.8	-5
Cc1cc(C)cc(SCc2noc(C(=O)NCCN(C)C)c2C(=O)NCCN(C)C)c1	9	13	-2.2	0	2.2	i	0.7	-1.6	1
COc1ccc(CCNC(=O)CS(=O)Cc2nc(-c3ccccc3F)oc2C)cc1OC (stereo unspecified)	-6	-1	-2.6	99*	1.8	i	0.69	-5.2	1
COc1cccc(CN(C)C(=O)c2cc(-c3cccs3)nc3ccccc23)c1	1	-15	0.8	0	-65	i	0.73	0.2	9
O=C(CCCn1c(=O)[nH]c2cc(Cl)ccc2c1=O)NCCCN1CCCC1=O	nt	nt	nt	-16	0.3	nt	0.72	1.9	7
COC(=O)CCCC1=CC2=CC(=O)C(C)(OC(=O)c3cccs3)C(=O)C2=CN1CCc1c[nH]c2ccccc12 (stereo unspecified)	-2	17	3.9	nt	0.5	i	0.7	3.5	6
O=C(c1ccccc1/S(=N/S(=O)(=O)c1ccccc1)N1CCOCC1)N1CCOCC1 (stereo unspecified)	nt	nt	nt	-3	-0.4	nt	0.67	-2.4	9
O=C(O)CC(Sc1n[nH]c(=S)s1)C(=O)O (stereo unspecified)	3	-4	0.7	25	3.9	i	0.66	-6.4	9
O=C(CN1C(=O)NC2(CCOc3ccccc32)C1=O)NCCc1ccccc1 (stereo unspecified)	nt	nt	nt	-3	-1.4	i	0.71	2.5	7
Cc1ccc(N(CCCCN2C(=O)c3ccccc3C2=O)C(=O)c2cccs2)cc1	nt	nt	nt	-19	-0.1	nt	0.75	3.5	4
N#Cc1cccc(CSc2ncnc(N)n2)c1	5	1	1.6	54	1.7	i	0.67	-1.7	1
CCS(=O)(=O)NCCc1csc(-c2cccnc2)n1	-3	6	-3.0	-5	1.0	i	0.7	-3.6	2
Cc1nn(-c2nnc(C)c(=O)[nH]2)c(C)c1SCC(=O)Nc1ccc(C(C)C)cc1	nt	nt	nt	98*	0.9	nt	0.72	-1.1	4
Cc1ccc(NC(=O)CN(C)C(=O)CSc2nnc(C(F)(F)F)n2C)cc1	5	-3	-1.7	nt	0.1	i	0.66	0.3	6
CCOC(=O)N1CCN(C(=O)CSc2nc(=O)n3ccc(C)cc3n2)CC1	15	14	-0.4	nt	0.3	i	0.7	0.7	0
CCC(=O)N(CCC1(C(C)C)CCOC(C)(C)C1)C(C)c1cccs1 (stereo unspecified)	-2	2	-2.0	-16	3.5	i	0.67	-1.1	2
COc1ccc(-c2nc(SCC(=O)NCc3ccco3)c(-c3ccccc3)[nH]2)cc1OC	-10	-2	-0.7	?	-0.2	nt	0.73	-1.0	-5
CCC1=NN(C(=O)Cc2ccc([N+](=O)[O-])cc2)C(O)(c2ccc(Br)cc2)C1 (stereo unspecified)	nt	nt	nt	1	3.1	nt	0.66	2.7	-2

Structures listed so far shown as hits in ALR H2O2 inh.
SMILES	Ecoli rRNA inh	Ecoli rRNA inh OD600	Ecoli rRNA inh RFP	ALR H2O2 inh	UCH37 DUB inh	FGF22 binding	E coli growth	HNF4A DNA FP	Beta2AR agonist
COc1ccc(CCNC(=O)CS(=O)Cc2nc(-c3ccccc3F)oc2C)cc1OC (stereo unspecified)	-6	-1	-2.6	99*	1.8	i	0.69	-5.2	1
Cc1nn(-c2nnc(C)c(=O)[nH]2)c(C)c1SCC(=O)Nc1ccc(C(C)C)cc1	nt	nt	nt	98*	0.9	nt	0.72	-1.1	4

Next section
SMILES	Ecoli rRNA inh	Ecoli rRNA inh OD600	Ecoli rRNA inh RFP	ALR H2O2 inh	UCH37 DUB inh	FGF22 binding	E coli growth	HNF4A DNA FP	Beta2AR agonist
Cc1ccc(OCC(=O)Oc2c(C)cccc2C)cc1C	0	-6	-7.1	-4	1.8	i	0.64	-2.3	3
CN1C(C(=O)Nc2ncccn2)=C(O)c2ccccc2S1(=O)=O	20	21	1.2	-2	12	i	0.67	0.6	2
O=S(=O)(Nc1cccc(-c2cn3cccnc3n2)c1)c1ccc(F)cc1	-6	-3	-5.5	-7	nt	i	nt	2.6	-13
O=C(c1ccncc1)c1nccn1-c1ccccn1	nt	nt	nt	4	1.1	nt	0.7	5.3	-6
COc1cccc(C(=O)Nc2nnc(S(=O)(=O)N(C)Cc3ccccc3)s2)c1	-23*	-15*	-1.7*	7	1.8	i	0.74	-1.5	-3
